MT1-MMP act inh: blocks activation of human MT1-MMP. AID 651647. hit rate 0.061% among 360,000. HT1080 RFP-PRO-GFP cells, GFP/RFP ratio fluorescence, overnight; percent of plate control window, DMSO zero. GFP/RFP ratio change, % at 20 µM;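 active = GFP/RFP ratio change of at least 30% with cell ATP level not reduced by more than half and red fluorescence within 50% of control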; note: strong numbers were not always called active
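Assay system: HT1080 cells carrying an RFP-PRO-GFP reporter | Dosing: Single dose of 20 µM compound, 1% DMSO final | Incubation: Cells overnight before dosing, compound overnight, 37 °C, 5% CO2 | Evaluation: GFP/RFP fluorescence ratio | Control set: DMSO and RFP-L50D-GFP cell wells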
CSC inhib: blocks cancer stem cells; cancer stem cell-like cells viability, luminescence; hit rate 1.1% among 300,000; inhibition, % at 7.5 µM;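 active = mean at 75% or more and at least half the replicates too; tested in HMLE shEcad cells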;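 note: 0% = median of negative and 100% = median of positive control wells; the first replicate is given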
Env fusion inh: HIV envelope-mediated fusion inhibition. HeLa-JRFL Env/CEM21 cell fusion, luciferase. inhibition, % at 12.3 µM. hit rate 1.1% among 360,000;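 active = mean replicate inhibition score of at least 50 and every replicate individually at or above 50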;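 note: 0% = plate neutral controls and 100% = maraviroc near 300 nM; one replicate is shown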
UUG fidelity: modulators of start codon recognition fidelity in yeast. S. cerevisiae UUG-firefly luciferase reporter, luminescence/redox ratio. activity score, % at 18.7 µM. hit rate 0.13% among 350,000. AID 602363;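 active = replicate mean at a twofold rise or more, about +100% in these data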;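 note: firefly luciferase made from a UUG start codon reports start codon fidelity; reporter light over untreated wells divided by growth signal over untreated wells; some hits fall short of that in this replicate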
eIF4H FP inh: inhibitors of RNA binding by human eIF4H; AID 2012; inhibition, % at 35 µM; Q15056; eIF4H fluorescence polarization binding assay; hit rate 0.94% among 290,000;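 active = 50% or more with normal probe brightness, or confirmed in later tests; about a fifth of its hits are not listed in these tables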;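 note: calls also rest on retests at 20 µM and on dose response follow-up; 0% = protein and probe with vehicle and 100% = probe without protein; strong numbers were not always called active; many hits fall short of the cut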
Rce1 inh: yeast Ras-converting enzyme inhibition; yeast membranes, quenched prenylated peptide cleavage fluorescence; hit rate 0.27% among 290,000; Q03530; calls only;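 active = fall in fluorescence gain of 50% or more versus controls, with final raw signal at or below 3038400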;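 note: plate controls were neutral control wells for no effect and wells lacking membranes for full effect; tested at 10 µM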
PABP FP inh: PABP-poly(A) binding inhibition. hit rate 1% among 290,000. PABP-poly(A) RNA binding, fluorescence polarization. inhibition, % at 35 µM. P11940. AID 2014;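 active = 50% or more with normal probe brightness, or confirmed in later tests; about a fifth of its hits are not listed in these tables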;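 note: calls also rest on retests at 20 µM and on dose response follow-up; controls were probe without protein and protein plus probe with vehicle; some compounds called inactive have numbers as strong as hits; many hits fall short of the cut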
Target sequence (P11940 whole entry, looked up): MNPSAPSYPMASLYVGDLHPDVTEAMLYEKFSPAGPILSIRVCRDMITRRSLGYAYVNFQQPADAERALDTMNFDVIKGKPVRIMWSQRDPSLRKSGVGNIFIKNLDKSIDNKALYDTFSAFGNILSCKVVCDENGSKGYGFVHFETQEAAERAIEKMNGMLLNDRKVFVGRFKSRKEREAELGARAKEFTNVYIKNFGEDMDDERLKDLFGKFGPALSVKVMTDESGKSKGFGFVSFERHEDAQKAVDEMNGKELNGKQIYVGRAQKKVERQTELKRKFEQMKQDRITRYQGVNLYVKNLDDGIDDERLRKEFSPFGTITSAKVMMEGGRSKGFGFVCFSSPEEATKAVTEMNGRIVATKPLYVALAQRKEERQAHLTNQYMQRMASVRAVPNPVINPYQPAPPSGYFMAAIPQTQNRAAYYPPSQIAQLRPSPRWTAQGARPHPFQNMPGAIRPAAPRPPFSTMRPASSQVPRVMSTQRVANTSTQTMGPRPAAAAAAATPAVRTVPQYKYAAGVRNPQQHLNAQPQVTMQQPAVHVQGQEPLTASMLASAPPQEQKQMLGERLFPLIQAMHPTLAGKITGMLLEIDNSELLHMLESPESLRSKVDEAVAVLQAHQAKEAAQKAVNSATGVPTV
MT1-MMP act inh RFP: further read-out of MT1-MMP act inh, marked with its call; RFP signal change, %; measured here: RFP expression control read;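 0 = vehicle wells; hits needed this value within 50% of zero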
Starred values were filed as active, the others as inactive; i = inactive; x = no result given. Only part of the results is shown; the hit share may differ from the screen's.

Start of the data: the first 14 compounds, to show the layout:
SMILES	MT1-MMP act inh	MT1-MMP act inh RFP	CSC inhib	Env fusion inh	UUG fidelity	eIF4H FP inh	Rce1 inh	PABP FP inh
Cc1cccc(NS(=O)(=O)c2cccc(C(=O)NNC(=O)c3ccccc3O)c2)c1	7	-19	25	-2	22	x	x	x
CCOC(=O)CCCc1ccc(/C(C)=N/NC(=S)NC)cc1	-1	-2	1	-4	x	0	i	-4
CCOC(=O)N1CCN(Cc2nc3c(c(=O)n(C)c(=O)n3C)n2Cc2cccc(C)c2)CC1	1	0	-8	-1	-8	-9	i	1
COc1ccc(C(=O)COC(=O)c2cccnc2SC)cc1	3	2	-3	4	x	-7	i	-2
CC1(C)Oc2ccc(C(=O)N/N=C/c3ccc(O)cc3)cc2NC1=O	2	2	17	-6	-15	-3	i	6
Cc1cc(F)ccc1NC(=O)C1CCCO1 (configuration not stated)	-8	-5	-16	-13	-5	-6	i	10
N#Cc1cc(NC2CCCC2)c([N+](=O)[O-])cc1C#N	10	-6	57	x	-16	-2	i	8
CC1CCCCC1NC(=O)COC(=O)c1c2c(nc3ccccc13)/C(=C\c1ccco1)CC2 (configuration not stated)	6	8	x	-11	-3	x	x	x
COc1cc(/C=N/NC(=O)COc2ccc(-n3cnnn3)cc2)ccc1OCC(N)=O	5	4	-11	-23	x	-5	i	-10
Fc1cccc(Cc2c(-c3ccccc3)nc3c(Cl)cc(C(F)(F)F)cn23)c1	-1	0	x	1	-8	x	x	x
CCc1cc2c(=O)n(-c3ccccc3)c(SCC(N)=O)nc2s1	-3	-1	-12	13	2	7	i	1
Cc1ccc(S(=O)(=O)/N=C(/Nc2ccc(O)c(C(=O)O)c2)c2ccccc2)cc1	1	3	-24	7	-6	x	x	x
C/C(=N\NC(=O)CC#N)c1ccc(Oc2ccccc2)cc1	-10	-8	-11	-3	-16	-2	i	-2
O=C(CN1C(=O)CCSc2ccc(S(=O)(=O)N3CCOCC3)cc21)Nc1ccccc1Cl	-2	-2	-10	0	-9	-7	i	2

The whole of this part, from the first entry:
SMILES	MT1-MMP act inh	MT1-MMP act inh RFP	CSC inhib	Env fusion inh	UUG fidelity	eIF4H FP inh	Rce1 inh	PABP FP inh
Cc1cccc(NS(=O)(=O)c2cccc(C(=O)NNC(=O)c3ccccc3O)c2)c1	7	-19	25	-2	22	x	x	x
CCOC(=O)CCCc1ccc(/C(C)=N/NC(=S)NC)cc1	-1	-2	1	-4	x	0	i	-4
CCOC(=O)N1CCN(Cc2nc3c(c(=O)n(C)c(=O)n3C)n2Cc2cccc(C)c2)CC1	1	0	-8	-1	-8	-9	i	1
COc1ccc(C(=O)COC(=O)c2cccnc2SC)cc1	3	2	-3	4	x	-7	i	-2
CC1(C)Oc2ccc(C(=O)N/N=C/c3ccc(O)cc3)cc2NC1=O	2	2	17	-6	-15	-3	i	6
Cc1cc(F)ccc1NC(=O)C1CCCO1 (configuration not stated)	-8	-5	-16	-13	-5	-6	i	10
N#Cc1cc(NC2CCCC2)c([N+](=O)[O-])cc1C#N	10	-6	57	x	-16	-2	i	8
CC1CCCCC1NC(=O)COC(=O)c1c2c(nc3ccccc13)/C(=C\c1ccco1)CC2 (configuration not stated)	6	8	x	-11	-3	x	x	x
COc1cc(/C=N/NC(=O)COc2ccc(-n3cnnn3)cc2)ccc1OCC(N)=O	5	4	-11	-23	x	-5	i	-10
Fc1cccc(Cc2c(-c3ccccc3)nc3c(Cl)cc(C(F)(F)F)cn23)c1	-1	0	x	1	-8	x	x	x
CCc1cc2c(=O)n(-c3ccccc3)c(SCC(N)=O)nc2s1	-3	-1	-12	13	2	7	i	1
Cc1ccc(S(=O)(=O)/N=C(/Nc2ccc(O)c(C(=O)O)c2)c2ccccc2)cc1	1	3	-24	7	-6	x	x	x
C/C(=N\NC(=O)CC#N)c1ccc(Oc2ccccc2)cc1	-10	-8	-11	-3	-16	-2	i	-2
O=C(CN1C(=O)CCSc2ccc(S(=O)(=O)N3CCOCC3)cc21)Nc1ccccc1Cl	-2	-2	-10	0	-9	-7	i	2
CSc1cc(-c2ccncc2)nc(-c2ccc(Cl)cc2)c1	-2	1	25	13	-11	6	i	-4
CC(C)N(Cc1ccccc1)S(=O)(=O)c1cccs1	0	1	x	-76	-15	-3	i	-7
Cc1ccc(C(=O)O/N=C/c2ccc(N(C)C)cc2)cc1	4	9	-13	4	x	0	i	-1
CCCCN(C(=O)CNC(=O)c1ccco1)C(C(=O)NC1CCCCC1)c1ccc(OC)cc1OC (configuration not stated)	-4	-7	3	18	8	-5	i	-3
Cc1ccc(C(=O)Nc2nc(-c3cc(Cl)sc3Cl)cs2)cc1	-13	-20	6	45	-7	-11	i	-2
Cc1oc(-c2ccc(Cl)cc2)cc1C(=O)NC1CCN(Cc2ccccc2)CC1	-1	-4	14	5	-2	-7	i	-12
CN1C(=O)[C@H]2[C@@H](/C=C/c3ccccc3)N3C(=O)CN(Cc4ccccn4)C(=O)[C@@]3(Cc3ccccc3)[C@H]2C1=O	-5	2	-7	-67	-16	x	x	x
COc1cccc(/C=N/N2CCN(c3ccccc3OC)CC2)c1	-1	1	-6	-64	-9	-21	i	-4
CCn1c(SCC(=O)N2CCCCCC2)nc2c(c1=O)SCC2	-1	-2	-1	-144	-5	-14	i	5
CCOC(=O)[C@@H]1[C@H]2COc3cc(OC)ccc3[C@H]2N2C(=O)N(c3ccc(Br)cc3)C(=O)[C@]12C	0	0	-9	-28	-9	x	x	x
O=C(N/N=C1\CCCc2ccccc21)c1ccccc1Cl	1	-1	0	-13	x	1	x	-9
Cc1ccc(CN2CCN(Cc3ccc(O)cc3)CC2CCO)o1 (configuration not stated)	-3	-2	-7	-12	x	-1	i	0
COc1c(C(=O)NNC(=O)c2ccccc2Cl)csc1Br	3	0	-2	-48	x	-1	i	5
COC(=O)c1cc(S(=O)(=O)NCC2CCN(Cc3ccc(C)cc3)CC2)cn1C	1	1	17	6	-22	1	i	10
CN(C1CCCCC1)S(=O)(=O)c1ccc(-n2cnnn2)cc1	0	3	1	-4	-10	-11	i	9
FCCCOc1ccc(-c2ccnc(-c3ccccc3)n2)cc1	9	-2	15	x	-8	4	i	3
C=CCOc1nc(N(C)C)nc(N(C)C)n1	-4	-1	-16	-14	-24	1	i	7
C/C(=N\NC(=O)CN(c1ccccc1)S(C)(=O)=O)c1ccccc1O	3	3	-6	11	-7	-6	i	3
COCc1cc(/C=N\NC(=O)Cc2ccc(Cl)cc2)ccc1OC	8	4	-18	11	x	-3	i	0
O=C(CCS(=O)(=O)c1ccccc1)N1CCN(c2ccc(F)cc2)CC1	0	0	23	-13	9	-2	i	9
O=C1N[C@@H](Cc2ccccc2)C(=O)N2[C@@H]1C[C@@]1(Br)c3ccccc3N(S(=O)(=O)c3ccccc3)[C@@H]21	-1	-1	-10	-33	-11	x	i	x
COc1cccc(C(=O)Cn2c(Br)nc3c2c(=O)n(C)c(=O)n3C)c1	4	-7	5	3	-16	-5	i	4
Cc1ccc2c(c1)c(CC(=O)Nc1ccc(C)c(F)c1)c(C(=O)O)n2C	1	9	25	x	7	12	i	18
CCC1CN(C(=O)NCc2ccccc2)c2cc(C)ccc2O1 (configuration not stated)	1	-3	7	20	-9	4	i	8
CCC1CCCCN1C(=O)CCCc1ccccc1 (configuration not stated)	3	4	-8	-5	-18	-4	i	-8
C=CCSC1=NC(=O)/C(=C/c2cccs2)S1	3	0	62	30	-15	2	x	5
O=C(c1ccco1)N1CCc2ccccc21	5	1	0	-15	x	13	i	3
O=C(NN1C(=O)C2C3c4ccccc4C(c4ccccc43)C2C1=O)c1ccc(Cl)cc1 (configuration not stated)	1	2	-5	3	-22	-6	i	-8
CS(=O)(=O)c1cccc(S(=O)(=O)N2CCCCCC2)c1	0	1	-5	-7	-22	-5	i	2
CCCC(C)NNC(=O)c1cc2ccccc2[nH]1 (configuration not stated)	0	3	-12	-22	-20	-1	i	-10
CC(=O)Cn1cnc2c(cnn2-c2ccc(C)c(C)c2)c1=O	4	3	2	-41	-9	1	i	7
Cc1cc(C)nc(NC(=O)c2cnc3sccn3c2=O)n1	1	4	-7	2	-21	5	i	-14
O=C(Nc1c2c(nc3ccccc13)CCCC2)c1ccccc1F	-1	2	1	x	-18	2	i	15
C[C@H](NC(=O)c1[nH]cnc1C(=O)Nc1nccs1)c1ccccc1	8	4	-13	-27	-12	x	x	x

Pulled one by one from the list above (two):
SMILES	MT1-MMP act inh	MT1-MMP act inh RFP	CSC inhib	Env fusion inh	UUG fidelity	eIF4H FP inh	Rce1 inh	PABP FP inh
C=CCSC1=NC(=O)/C(=C/c2cccs2)S1	3	0	62	30	-15	2	x	5
O=C(Nc1c2c(nc3ccccc13)CCCC2)c1ccccc1F	-1	2	1	x	-18	2	i	15

(cont.)
SMILES	MT1-MMP act inh	MT1-MMP act inh RFP	CSC inhib	Env fusion inh	UUG fidelity	eIF4H FP inh	Rce1 inh	PABP FP inh
CCOC(=O)C1CCCN(S(=O)(=O)c2ccc(NC(C)=O)cc2)C1 (configuration not stated)	2	-6	-13	18	x	2	i	0
CCOC(=O)/C(C#N)=C/c1ccc(OCC(=O)Nc2ccc(C)c(C)c2)c(OC)c1	7	3	4	-2	x	-15	i	-1
CCc1ccc(NC(=O)CCNS(=O)(=O)c2cccs2)cc1	4	4	-7	-8	-8	-9	i	5
O=C(CC1SC(=O)N(Cc2ccccc2)C1=O)Nc1nccs1 (configuration not stated)	5	5	-2	7	-9	2	i	9
CCOC(=O)CN1C(=O)C(O)(CC(=O)c2ccc3c(c2)CCCC3)c2ccccc21 (configuration not stated)	1	0	-6	-36	0	4	i	0
O=C(COC(=O)CC1Sc2ccccc2NC1=O)NCc1ccccc1 (configuration not stated)	4	2	10	-7	-8	x	i	x
O=C(Nc1nc2c(Cl)cccc2s1)c1ccc([N+](=O)[O-])o1	0	-27	13	-9	-15	6	i	0
CC(NC(=O)c1cc(-c2ccncc2)nc2ccc(Cl)cc12)C1CCCO1 (configuration not stated)	-1	1	-5	1	-2	-5	i	15
NC(=O)CC(NC(=O)c1cccc(Br)c1)c1ccc(NC2CCCCCCC2)c([N+](=O)[O-])c1 (configuration not stated)	2	0	10	23	-10	-3	i	5
C=CCC1(C(=O)NCCO)CCN(C(=O)OC(C)(C)C)CC1	1	5	-8	1	-17	-13	i	-3
O=C(O)c1cc(-c2ccccc2)n(-c2ccc(Cl)cc2Cl)n1	-1	5	x	4	-21	8	i	-2
Cc1ccc(OC2=NS(=O)(=O)c3ccccc32)cc1	3	3	-10	-31	x	8	i	16

Source: PubChem BioAssay (several laboratories)
